Polio RdRp inh: inhibitors of poliovirus RNA polymerase binding and polymerization. P03300. poliovirus polymerase elongation, fluorescence polarization; active compounds read low. % elongation, % (compound at 16.7 µg/mL). actives 0.66% (n = 150,000). AID 588519; in the data active = % elongation below about 90%; also: some results filed as inactive read as strong as hits
MbtI inh: blocks the Mycobacterium tuberculosis siderophore enzyme MbtI; AID 493033; inhibition, %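 (about 17 µg/mL by stock and volumes)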; P9WFX0; purified MbtI enzyme, fluorescence intensity read-out; actives 0.89% (n = 100,000);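 active = above 50% in both replicates, above 80% if mildly self-fluorescent; inactive = the rest, strongly fluorescent compounds included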;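 also: 0% = mean of negative and 100% = mean of positive controls; one replicate is shown; some compounds called inactive have numbers as strong as hits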
Target sequence (P9WFX0 whole entry, looked up): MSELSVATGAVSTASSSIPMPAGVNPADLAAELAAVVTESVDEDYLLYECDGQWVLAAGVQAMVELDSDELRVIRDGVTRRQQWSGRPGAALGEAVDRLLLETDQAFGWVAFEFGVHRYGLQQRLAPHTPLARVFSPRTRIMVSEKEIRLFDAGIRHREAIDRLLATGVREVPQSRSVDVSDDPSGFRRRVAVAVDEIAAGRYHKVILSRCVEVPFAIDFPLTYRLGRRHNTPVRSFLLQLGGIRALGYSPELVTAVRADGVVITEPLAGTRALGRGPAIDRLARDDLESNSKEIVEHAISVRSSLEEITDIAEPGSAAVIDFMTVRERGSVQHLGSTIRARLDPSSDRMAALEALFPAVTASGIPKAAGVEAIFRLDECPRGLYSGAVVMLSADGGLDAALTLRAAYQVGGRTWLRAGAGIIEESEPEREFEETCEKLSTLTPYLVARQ
Mtb MenB inh: Mtb MenB enzyme inhibition; inhibition, %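 (about 12 µg/mL by stock and volumes)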; actives 0.43% (n = 100,000); P9WNP5; MenB enzyme assay, absorbance read-out; some hits fall short of the stated cut;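 active = mean of two replicates above 30%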;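 also: 0% = no compound and 100% = wells with inactive enzyme; the first replicate is given; strong numbers were not always called active; inactives centre near -10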
Target sequence (P9WNP5 whole entry, looked up): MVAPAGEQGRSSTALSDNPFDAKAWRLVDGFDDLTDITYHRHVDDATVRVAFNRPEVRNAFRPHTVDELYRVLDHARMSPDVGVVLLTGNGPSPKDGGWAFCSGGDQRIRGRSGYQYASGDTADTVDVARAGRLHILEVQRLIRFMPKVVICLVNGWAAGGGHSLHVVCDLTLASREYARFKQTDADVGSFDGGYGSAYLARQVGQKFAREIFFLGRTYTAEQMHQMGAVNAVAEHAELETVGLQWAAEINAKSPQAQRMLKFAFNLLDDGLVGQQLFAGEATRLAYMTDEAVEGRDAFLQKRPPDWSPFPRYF
Polio RdRp inh intensity: also measured in Polio RdRp inh; calls as there; % elongation; measured here: total intensity read-out; formula for this scale not given here;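 total fluorescence in place of polarization; lower means less elongation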
Numbers without * were called inactive; x = no result given; & = joins results of further samples.

The line under a structure holds: Polio RdRp inh	Polio RdRp inh intensity	MbtI inh	Mtb MenB inh
CC1CCCC(C)N1C(=S)SCC(=O)O (stereo unspecified)
 : 105	113	-1	-42
CC(=NCc1ccc(C#N)cc1)c1c(C)cc(C)cc1O
 : 100	103	3	8
CN(C)CCN(C(=O)CN1C(=O)c2ccccc2C1=O)c1nc2c(F)cc(F)cc2s1
 : 100	105	-7	-53
C=CCc1ccc(OCc2ccccc2)c(OC)c1
 : 109	110	x	-20
CN=c1scc(C)n1/N=C/c1c[nH]c2ccc(Br)cc12
 : 102	96	21	-6
Cc1ccc2cc3cc(C(=O)NCCCN4CCCC4)oc3nc2c1
 : 100	94	96	-18
CSc1ccc(S(=O)(=O)N2CCC(C(=O)NCCN3CCOCC3)CC2)cc1
 : 101	101	-1	-26
Nc1oc2c(CN3CCCCCC3)c(O)ccc2c(=O)c1-c1nc2ccccc2s1
 : 103	99	43	-21
Cc1ccc(S(=O)(=O)N(C)c2nc3ccccc3nc2N2CCCC(C(N)=O)C2)cc1 (stereo unspecified)
 : 101	110	16	-28
S=c1n(CN2CCOCC2)nc(-c2ccccc2Br)n1-c1ccccc1
 : 103	102	5	-20
O=C(NCC(c1cccnc1)N1CCOCC1)c1ccc2c(c1)OCO2 (stereo unspecified)
 : 102	104	-2	-18
O=C(CSc1nnc(-c2ccc3c(c2)OCO3)n1-c1ccccc1)NC1CCCC1
 : 98	105	-7	15
O=C1CC(c2ccco2)CC2=C1C1c3ccccc3C(=O)N1c1ccccc1N2 (stereo unspecified)
 : 100	102	-9	-6
COc1cccc(CN(C(=O)c2ccccc2)C2CCS(=O)(=O)C2)c1 (stereo unspecified)
 : 103	101	5	-7
CC(=O)NCc1ccc(C(=O)CSc2nc3cc(Cl)ccc3s2)o1
 : 116	125	31	1
Cc1nnc(-c2cccc(S(=O)(=O)NCCc3ccccc3)c2)o1
 : 100	103	-2	-13
N#CCOC(=O)C1c2ccccc2Oc2ccccc21
 : 103	106	-6	-17
COc1cc(/C=N/n2c(=O)[nH]c3ccccc3c2=O)ccc1OCC(=O)O
 : 104	100	-9	-19
c1cc(-c2nc3ccccc3s2)nc(-c2nc3ccccc3s2)c1
 : 100	99	2	-30
CCOC(=O)C1CCN(c2ncnc3c2cnn3-c2cccc(C)c2)CC1
 : 103	103	-29	-13
CCNC(=O)Cn1c(=O)c(=O)n(Cc2ccccc2)c2ccc(Cl)cc21
 : 103	104	17	x
CNC(=O)C1Cc2cc(S(=O)(=O)N3CCCC3)ccc2N1C(C)=O (stereo unspecified)
 : x	x	-25	-11
CC(C)CCN(C)C1CCN(S(=O)(=O)c2cccc(Cl)c2)CC1
 : 104	98	-2	10
Cc1ccc(CNC(=S)NN(C)C)cc1
 : 103	107	-5	13
O=C(Cc1n[nH]c(=O)c2ccccc12)Nc1nc(CN2CCOCC2)cs1
 : x	x	0	-5
Cc1ccc(OCc2ccc(C(=O)Nc3nccs3)o2)cc1C
 : 104	97	4	-1
CCN1CCN(C(c2cccs2)C(C)NC(=O)c2ccccc2)CC1 (stereo unspecified)
 : 104	99	-7	-34
O=C(COC(=O)C12CC3CC(CC(C3)C1)C2)c1ccc(Br)cc1
 : 103	107	1	13
Cc1csc2ncc(C(=O)N3c4ccccc4CC3C)c(=O)n12 (stereo unspecified)
 : 102	103	-7	-18
COc1ccc(-c2nnc(SC(C)C)n2-c2ccccc2)cc1
 : 105	98	5	-45
CCCOc1ccc(C(=O)N(CC(N)=O)C(C)C)cc1
 : 101	102	3	-14
O=c1c2oc3ccccc3c2[nH]c(=S)n1Cc1cccs1
 : 103	105	4	-22
CC1CCN(C(=O)c2oc3ccccc3c2NC(=O)c2ccccc2F)CC1
 : 99	102	-127	-22
O=C(COC(=O)CCc1ccccc1)NC12CC3CC(CC(C3)C1)C2
 : 102	107	-10	x
Cc1noc(C)c1COC(=O)Cc1c[nH]c2ccccc12
 : 106	100	-6	-8
CC(C)c1cc(NC2CCCCC2)n2c(nc3ccccc32)c1C#N
 : 105	99	41	-1
C/C(=N\NC(=O)Cc1csc(C)n1)c1ccc(C)cc1
 : 101	99	12	10
COC(=O)c1sc(S(=O)(=O)NCc2ccccc2)c(C(=O)OC)c1C
 : 101	104	-14	-4
C#CC(CC)(CC)NC(=O)CCc1nc2sc3c(c2c(=O)[nH]1)CCCC3
 : 109	104	11	3
Cc1cc(C)c2c(N)c(C(=O)NCC3CCCCC3)sc2n1
 : 104	109	24	x
CCOc1ccc(N2C(=O)CC(SCc3nc4ccccc4[nH]3)C2=O)cc1 (stereo unspecified)
 : 100	104	46	4
CNCCCc1cc(C)ccc1O
 : 103	103	-9	-18
CC(C)c1nnc(NC(=O)C2c3ccccc3Oc3ccccc32)s1
 : 93	85	17	-19
O=C1c2ccccc2C(=O)C1c1ccccc1
 : 101&101	103&100	5&6	-3&-5
Brc1cccc(-c2nnc3sc(CNC4CCCC4)cn23)c1
 : 100	101	1	-15
CC1C(=O)CC(c2ccco2)NC1c1ccco1 (stereo unspecified)
 : 102	105	-11	17
O=C(CCS(=O)(=O)Cc1ccccc1)N1CCN(c2ccccc2)CC1
 : 103	101	-15	-20
Cc1nc2cc(N=Cc3ccc(Cl)cc3)ccc2n1Cc1ccccc1
 : 104	109	-12	-11
c1cc(OC2CCNCC2)cc(-n2cnnn2)c1
 : 105	103	31	-3
COc1cccc(C(=O)NC(NCC2CCCO2)(C(F)(F)F)C(F)(F)F)c1 (stereo unspecified)
 : 103	104	-13	-19
O=C1NC2c3ccccc3C(=O)N2c2ccccc21 (stereo unspecified)
 : x	x	1	-14
CCOC(=O)c1ccccc1NC(=O)N1CCC(CN2CCCC2)CC1
 : 104	108	23	-27
Cc1cccc(-n2c(CSc3nc4ccccc4[nH]3)nc3ccccc3c2=O)c1C
 : 106	113	x	-4
Cc1nc(SCC(=O)NN2C(=O)NC3(CCCCC3)C2=O)c2ccccc2n1
 : 107	108	9	-18
c1ccc(-c2nc(CSc3nnc4n3CCCCC4)cs2)cc1
 : 99	99	5	-4
O=C(Nc1c(C(=O)N2CCOCC2)oc2ccccc12)c1cccs1
 : 102	101	71	-8
COc1ccc(-c2cc(-c3nnc(CSc4nnc(-c5ccncc5)n4C)o3)c3ccccc3n2)cc1OC
 : 98	107	-8	-116
NC(=O)Cn1cnc2c(cnn2CCO)c1=O
 : 104	104	1	-3
Cc1ccc(NCc2cc(=O)[nH]c3ccccc23)cc1
 : 99	103	-22	2
O=C(CNc1ccc(C(F)(F)F)cc1)N1CCc2ccccc21
 : 103	110	-8	-11

Additional structures follow:
The line under a structure holds: Polio RdRp inh	Polio RdRp inh intensity	MbtI inh	Mtb MenB inh
O=C(Cn1cc2c(n1)CCCC2)Nc1cccc(C(F)(F)F)c1
 : 102	103	-9	-29
NC(=O)c1ccc2c(c1)S(=O)(=O)c1ccccc1C2=O
 : 103	101	-12	x
O=C(O)CCCn1c(=O)c2cc3c(=O)n(CCCC(=O)O)c(=O)c3cc2c1=O
 : 99	102	-2	-14
Cc1cc(C)cc(OCC(=O)NC2CCCCC2C)c1 (stereo unspecified)
 : x	x	-1	-19
CCCCN1C=C(C(=O)OC)C(c2cccc(OC)c2OC)C(C(=O)OC)=C1
 : 101	102	-36	-31
CN(C)S(=O)(=O)c1ccc2c(c1)C(CC(=O)O)OC2=O (stereo unspecified)
 : 100	103	13	0
Cn1c(C(=O)N2CCC(C(=O)NC3CCCc4ccccc43)CC2)cc2sccc21 (stereo unspecified)
 : 102	107	4	-17
O=C(Cn1cnnn1)NC1CCCc2ccccc21 (stereo unspecified)
 : 101	109	-3	-10
CCN1C/C(=C\c2ccccc2)C(=O)/C(=C/c2ccccc2)C1
 : 105	106	7	-5
O=C(Nc1ncn[nH]1)Nc1cccc2ccccc12
 : 102	102	x	-3
CCn1c(O)c(N=NS(=O)(=O)c2ccc(C)cc2)c2cc(Cl)ccc21
 : 99	99	6	-36
CN=c1scc(-c2ccc(OC(F)F)cc2)n1/N=C/c1ccc(O)cc1
 : 109	109	-1	-39
Cc1ccc(Oc2ncccc2NC(=O)CSc2ccccn2)c2c1CCC2
 : 97	103	-2	-7
CCCCOC(=O)c1ccc(O)cc1
 : 98	100	-4	-9
COc1ccc(-c2cc(C(F)(F)F)n3ncc(C(=O)Nc4cccc(O)c4)c3n2)cc1
 : 103	95	-21	-23
CCOC(=O)C(C#N)C1(O)C(=O)c2ccccc2C1=O (stereo unspecified)
 : 94	102	24	-64
Cc1nc(NCc2ccc3c(c2)OCO3)nc2c1C(=O)c1ccccc1-2
 : 101	107	-10	-1
COc1ccccc1N1CCSC1C(N)=O (stereo unspecified)
 : 108	113	x	-7
COc1ccc(C2C(C(=O)OC3CCCCC3)=C(C)NC3=C2C(=O)CCC3)c(OC)c1OC (stereo unspecified)
 : 103	100	6	-13
O=C(SCc1cccs1)c1csc(C2COc3ccccc3O2)n1 (stereo unspecified)
 : 106	112	-2	-11
CC(C)C(=O)N1CCN(c2ccccc2N)CC1
 : 97	91	x	15
COC(=O)c1c(NS(=O)(=O)c2cccs2)sc2c1CCCC2
 : 102	102	0	-13
CC(C)(C)NC(=O)CCSc1nnc(-c2ccccc2)o1
 : 102	104	-6	9
O=C1CCCC2=C1C(c1ccccc1C(F)(F)F)c1c(ccc3ncccc13)N2 (stereo unspecified)
 : 102	106	x	-36
O=C(NN=C1CCCC1)C1CCN(S(=O)(=O)c2cccs2)CC1
 : 103	98	2	-2
CCC(c1nnc(SC(C)C(=O)NCc2ccc3c(c2)OCO3)n1Cc1ccccc1)N(C)C (stereo unspecified)
 : 102	107	2	4
Cc1csc2nc(CSc3nnc(-c4ccccc4Cl)n3C3CCCC3)cc(=O)n12
 : 105	108	-1	-11
Oc1cccc(NC(=S)Nc2cccnc2)c1
 : 107	114	x	2
CC(C)(C)C(=O)C(Oc1ccc(Cl)cc1)n1cnnc1 (stereo unspecified)
 : 104	109	x	-23
COc1ccc(-c2cn(-c3ccc(C)cc3C)c(=S)[nH]2)cc1OC
 : 101	105	43	-19
CC(C)C(=O)Nc1ccccc1OC(F)F
 : 110	109	1	-8
Cn1c(=O)c(C2=NS(=O)(=O)c3ccccc3N2)c(O)c2ccccc21
 : 99	103	-5	33*
Cc1cc(C)nc(SCC(=O)OCC(=O)N2CCc3ccccc32)n1
 : 96	102	2	9
C=CCN(CC=C)C(=O)c1cccs1
 : 103	100	x	-8
N/C(CN1CCSCC1)=N\OC(=O)c1cccs1
 : 99	102	-7	10
CC(SCc1cn2cc(Cl)ccc2n1)C(=O)O (stereo unspecified)
 : 97	96	36	14
O=C1/C(=C/c2ccccc2)N=C2CCCCCN12
 : 99	105	-2	1
CCc1ccc(N2C(=O)C3C(C(=O)OC)=NN(C(C)=O)C3C2=O)cc1 (stereo unspecified)
 : 102	103	6	-20
CN1N=C(C(F)(F)F)CC1=O
 : 102	105	12	8
O=C(/C=C\Nc1ccccn1)c1ccc2c(c1)OCO2
 : 101	107	6	-50
CC(=O)N(CCC(Cc1ccccc1)c1ccc2c(c1)OCO2)Cc1ccc2c(c1)OCO2 (stereo unspecified)
 : 101	105	x	-7
O=C(CSc1nc2cc(Cl)ccc2s1)NC1CCCC1
 : 97	95	-4	x
O=C(CSc1n[nH]c(=O)[nH]c1=O)N/N=C/c1ccccn1
 : 102	101	12	10
Cc1cccc(NC(=O)CN(C)S(=O)(=O)c2cccs2)c1C
 : 102	98	13	3
CCOc1cccc2cc(C(C)NCc3ccc(C)o3)oc12 (stereo unspecified)
 : 98	105	-7	-4

Profiles as entered above. Order of screens: Polio RdRp inh, Polio RdRp inh intensity, MbtI inh, Mtb MenB inh
Record of O=C1/C(=C/c2ccccc2)N=C2CCCCCN12 → 99, 105, -2, 1
Record of CC(SCc1cn2cc(Cl)ccc2n1)C(=O)O (stereo unspecified) → 97, 96, 36, 14
Record of Cc1cc(C)nc(SCC(=O)OCC(=O)N2CCc3ccccc32)n1 → 96, 102, 2, 9
Record of CC(=O)N(CCC(Cc1ccccc1)c1ccc2c(c1)OCO2)Cc1ccc2c(c1)OCO2 (stereo unspecified) → 101, 105, x, -7

(listing goes on)
The line under a structure holds: Polio RdRp inh	Polio RdRp inh intensity	MbtI inh	Mtb MenB inh
O=C(NCc1ccc2c(c1)OCO2)NCC1CCCC(CNC(=O)NCc2ccc3c(c2)OCO3)C1 (stereo unspecified)
 : 103	108	-8	-4
O=C(COc1ccccc1)Nc1ncn[nH]1
 : 103	102	-3	-27
N#C/C=C(\c1ccc(F)cc1)N1CCCCC1
 : 105	100	0	-16
O=c1[nH]c(=O)n(-c2ccc(Cl)cc2)c(O)c1C=Nc1ccc(N2CCOCC2)cc1
 : 96	113	-14	-63
CCCCn1c(SCC(=O)NC(C)(C#N)C(C)C)nnc1C(CC)N(C)C (stereo unspecified)
 : 108	103	6	14
CCCN(CCO)CC1CCCCC1
 : 100	102	0	-19
CC(C)CCn1c(=O)c2cccnc2n(Cc2cccc(Cl)c2)c1=O
 : 100	103	-11	-4
Cc1ccccc1Nc1nc(N)nc(COn2nnc3ccc(S(C)(=O)=O)cc32)n1
 : 105	111	-1	-20
Cc1cccc(NC(=O)CN(CC2CCCO2)C(=O)c2cc(-c3ccco3)nc3ccccc23)c1C (stereo unspecified)
 : 1.0*	30*	103	-7
CCOC(=O)C1CCCN(S(=O)(=O)c2ccc(C)cc2)C1 (stereo unspecified)
 : 102	101	-25	-9

Screening data (PubChem BioAssay)
